# Vaccinia Venus – qHTS for Stage-Specific Inhibitors of Vaccinia Orthopoxvirus: Venus Reporter Primary qHTS | Vaccinia virus Venus reporter expression, fluorescence | Potency, µM (top dose mostly 36.5 µM), without a hit: at the top dose activity change, negative = inhibition, usual class: inhibitors | actives 0.46% (n = 330,000); active means well fitted inhibition curve with a large enough effect; inconclusive means small, poorly fitted or top-dose-only effect; inactive means no such curve, though single readings can be large or run the other way; tested in A549 cells; note: nearly all actives have a fitted effect of over 30% in size; inactives centre near -10
# Vaccinia mCherry – qHTS for Stage-Specific Inhibitors of Vaccinia Orthopoxvirus: mCherry Reporter Primary qHTS | Potency, µM (highest dose often 36.5 µM), for the others: top-dose activity change, negative = inhibition, usual class: inhibitors | Vaccinia virus mCherry reporter infection, fluorescence; about a quarter of the inactives have no number | actives 0.63% (n = 310,000); active = well fitted inhibition curve with a large enough effect; inconclusive = small, poorly fitted or top-dose-only effect; inactive = no such curve, though single readings can be large or run the other way; tested in A549 cells; note: nearly all actives have a fitted effect of over 35% in size; inactives centre near -10
# * = called active by the depositor; i = inactive; u = inconclusive; x = not tested or not shown; [ ] = another dose, or the depositor's remark. % is set by controls: 0 for no effect and ±100 for the full control effect; potency is the fitted concentration of half-maximal effect.
Molecule | Vaccinia Venus | Vaccinia mCherry
Cc1ccc(S(=O)(=O)Nc2cc(=O)[nH]c3c2CCC3)cc1 | -23% | i
COCCN1Cc2cccc(C(=O)NCCCN3CCCC3=O)c2C1=O | -9% | 5%
CC(=O)Nc1ccc(CN2CCCC(CO)(Cc3ccccc3C)C2)cc1 (stereo not given) | -15% | i
COc1ccc(Cl)cc1NC(=O)CC(C)c1ccccc1 (stereo not given) | -20% | x
CCc1ccc(CNC(=O)c2c(C)oc3ncn(CC(C)C)c(=O)c23)cc1 | -9% | 0%
Cn1ccnc1C1CCCCN1Cc1nc(Cc2cccc(C(F)(F)F)c2)no1 (stereo not given) | 8% | -38%
O=C1C(Sc2ccccc2)=C[C@@]2(O)CC[C@@H](O)[C@]1(Sc1ccccc1)[C@H]2O | 2% | -6%
COc1cccc(CNC(=O)CN2C(=O)COc3ccc(S(=O)(=O)N4CCOCC4)cc32)c1 | -4% | 4%
COc1ccc(CC(=O)OCC(=O)NCc2ccc3c(c2)OCO3)cc1OC | -5% | -10%
CCO[C@@H]1OC(C(=O)NC2CC2)=C[C@H](C2CC2)[C@H]1CCCO | -7% | i

# Whole records from above.
# `O=C1C(Sc2ccccc2)=C[C@@]2(O)CC[C@@H](O)[C@]1(Sc1ccccc1)[C@H]2O` in the list: Vaccinia Venus = 2%; Vaccinia mCherry = -6%
# `CCO[C@@H]1OC(C(=O)NC2CC2)=C[C@H](C2CC2)[C@H]1CCCO` in the list: Vaccinia Venus = -7%; Vaccinia mCherry = i
# `CCc1ccc(CNC(=O)c2c(C)oc3ncn(CC(C)C)c(=O)c23)cc1` in the list: Vaccinia Venus = -9%; Vaccinia mCherry = 0%

# Next part.
Molecule | Vaccinia Venus | Vaccinia mCherry
Cc1ccc(-n2ncc3c(NC4CCCCCC4)ncnc32)cc1 | -7% | -9%
COC(=O)c1nnn(CC(=O)NC(=O)Nc2ccccc2F)c1C(=O)OC | 5% | 3%
O=C(CSCc1ccccc1Br)N/N=C/c1ccccc1C(=O)O | -4% | -3%
Cc1cccc(NC(=O)c2ccccc2C(=O)Nc2cccc(C)c2)c1 | -4% | -11%
N#Cc1ccc(CSC2=NCCN2)cc1 | -22% | -22%
O=C(c1ccco1)c1cn(Cc2ccccc2)c2ccccc12 | -16% | x
Cc1ccc(-c2nc(SC(C)C(=O)c3c(N)n(C)c(=O)n(C)c3=O)n[nH]2)cc1 (stereo not given) | -14% | -26%
COc1ccccc1S(=O)(=O)Nc1ccc(-c2nnc3n2CCCCC3)cc1 | -6% | x
CC1=C(c2ccc(C(C)C)cc2)S(=O)(=O)NC1=NCCCN1CCN(c2ccccc2F)CC1 | -13% | -15%
O=C(CSc1nc2ccccc2n1Cc1ccccc1)NCc1ccccc1 | -7% | -24%
COc1ccc(-n2c(=O)cc(N3CCN(Cc4ccccc4)CC3)[nH]c2=O)cc1 | -4% | i
C/C(CC(=O)Nc1cccc(Cl)c1Cl)=N\NC(=O)c1ccccc1N | 7% | u
CC1(C)OC(=O)C2(Cc3cc(C(F)(F)F)ccc3N3CCCCC32)C(=O)O1 (stereo not given) | u | u
O=C(c1cn(-c2ccccc2)nc1-c1ccc(Cl)s1)N1CCOCC1 | -21% | -8%
O=C(NCC1(N2CCCCC2)CCCCC1)c1ccc(-n2cc(NC(=O)c3cccnc3)cn2)cc1 | -17% | -12%
Cc1ccc(NC(=O)C2CCCN(C(=O)c3ccc(Cl)cc3)C2)cc1S(=O)(=O)N1CCOCC1 (stereo not given) | -26% | i
CN(CCc1ccccc1)C(=O)CCc1nnc(Cc2ccc3c(c2)OCO3)o1 | -8% | -14%
COCCn1c(SCC(=O)Nc2ccc(C(N)=O)cc2)nc2c([nH]c3ccccc32)c1=O | -8% | -12%
COC(=O)c1ccc(/C=C/c2c(-c3ccsc3)sc3ccccc23)cc1 | -29% | -21%
CCCCN1C(=N)N([C@@H](C)CN2CCC[C@H]2CN2C(N)=NC[C@@H]2Cc2ccccc2)C[C@H]1[C@H](C)CC | -5% | i
Cc1ccccc1Nc1nc(N)nc(CN2CCN(C(=O)c3ccccc3)CC2)n1 | -6% | -2%
CCOC(=O)C1CCCCN1Cc1cccc(OC)c1OC (stereo not given) | 1% | i
Cc1onc(-c2ccccc2)c1C(=O)NC1C(=O)N2C(C(=O)O)C(C)(C)S[C@@H]12 (stereo not given in full) | -15% | -6%
O=C(c1ccccc1)N1CCCN(c2nccc(C(F)(F)F)n2)CC1 | -4% | i
CN1CCN(C2=CC(=O)OC23CCCCC3)CC1 | -18% | -18%
Cc1cc(NC(=O)CSc2nc3c(C)ccc(C)c3cc2C#N)no1 | -15% | 8%
O=C(CCNS(=O)(=O)c1ccccc1)OCC(=O)c1ccc(Br)cc1 | 8% | -5%
NC(=O)CC(NC(=O)c1ccc(Br)cc1)c1ccc(NCc2ccc(F)c(F)c2)c([N+](=O)[O-])c1 (stereo not given) | -21% | -19%
O=C(c1cccc(N2C(=O)C3C4C=CC(C4)C3C2=O)c1)N1CCN(c2ccccc2)CC1 (stereo not given) | -9% | i
CC(C)[C@H](NC(=O)[C@@H]1Cc2ccccc2CN1C(=O)OC(C)(C)C)C(=O)NCC1CCCO1 (stereo not given in full) | -16% | i
Cc1ccc(N(C)C(=O)C2CCN(S(=O)(=O)c3c(C)noc3/C=C/c3c(C)cc(C)cc3C)CC2)cc1 | -8%[7.34 µM] | -8%[7.34 µM]
O=C(CN(c1ccccc1)S(=O)(=O)c1ccccc1[N+](=O)[O-])N1CCCC1 | -4% | -3%
Cc1cc(NCCN2CCOCC2)n2nc(C)c(-c3ccc(Cl)cc3)c2n1 | 6% | x
O=C(CCNC(=O)c1ccc(Cl)cc1)Nc1cc(C(F)(F)F)ccc1N1CCOCC1 | -25% | i
COc1ccc(C(=O)O)cc1S(=O)(=O)Nc1ccccc1-c1ccccc1 | -7% | i
CCOC(=O)C1(C)CCCN1C(=O)c1ccc2ccccc2c1 (stereo not given) | -8% | i
CC1(C)CC(NC(=O)C(C)(C)Oc2ccc(Cl)cc2)CC(C)(C)N1 | -2% | -2%
N#CC1=C(N)Oc2c(oc(CO)cc2=O)C1c1ccsc1 (stereo not given) | -7% | -17%
COCCNc1oc(/C=C/c2cccc(OC)c2)nc1S(=O)(=O)c1ccccc1 | -22% | -12%
COc1ccc(NC(=O)c2cnn(-c3ccccc3)c2C)c(OC)c1 | -2% | 13%
CCOC(=O)C1CC2=C(CC(C)(C)CC2=O)N(CCOC)C1=O (stereo not given) | 16% | 3%
Cc1cc(C)cc(N=Cc2ccc([N+](=O)[O-])s2)c1 | -7% | -21%
CC(C)CC(=O)Nc1nnc(SCC(=O)Nc2ccc3c(c2)OCO3)s1 | 0% | -7%
COc1ccc(N2CCN(C(=O)CCc3c(C)nc4c(-c5ccccc5)c(C)nn4c3C)CC2)cc1 | 0% | -12%
Oc1cccc(Nc2c3ccccc3nc3ccccc23)c1 | 10µM* | u
Cn1c(N)c(C(=O)CN2CCN(S(=O)(=O)c3ccccc3C#N)CC2)c(=O)n(C)c1=O | -8% | i
O=C(Nc1ccccc1Cl)c1cc(C2CCCN(C(=O)OCCF)C2)on1 (stereo not given) | -12% | 34%[activator]
COc1ccc2c(CC(=O)Nc3ccccc3N3CCOCC3)coc2c1 | -14% | 5%
CC=C1OC(n2cnc3c(N)ncnc32)C(O)C1O (stereo not given) | 4% | 12%
CCOc1ccccc1C1CC(=O)NC(C)=C1C(=O)OC1CCCCCC1 (stereo not given) | -13% | -19%

# Some of the entries so far, field by field.
COc1ccc(N2CCN(C(=O)CCc3c(C)nc4c(-c5ccccc5)c(C)nn4c3C)CC2)cc1
  Vaccinia Venus: 0%
  Vaccinia mCherry: -12%

Oc1cccc(Nc2c3ccccc3nc3ccccc23)c1
  Vaccinia Venus: 10µM*
  Vaccinia mCherry: u

# The list goes on.
Molecule | Vaccinia Venus | Vaccinia mCherry
COC(=O)C1=CN(c2c(C)cc(C)cc2C)C(N)=C(C#N)C1c1ccccc1 (stereo not given) | -20% | u
Cc1cc(C)c(Nc2cc(S(=O)(=O)O)c(N)c3c2C(=O)c2ccccc2C3=O)c(C)c1 | u | -25%
CCCCn1c(N)c(N(CCOC)C(=O)CN2CC=C(c3ccccc3)CC2)c(=O)[nH]c1=O | -7% | i
CCN(CC)c1ncnc2c1ncn2[C@H]1CN(Cc2ccc(Cl)cc2)C[C@@H](CO)O1 | 18% | i
CC(O)C(NS(=O)(=O)c1ccc(Cl)cc1)C(=O)OCCOc1ccc(F)cc1 (stereo not given) | u | -16%
CC1CCc2c(sc(NC(=O)COc3ccccc3C(C)(C)C)c2C#N)C1 (stereo not given) | -20% | u
Cc1cc([N+](=O)[O-])nn1CCCC(=O)Nc1sc2c(c1C(N)=O)CCC(C)C2 (stereo not given) | -2% | i
CCOC(=O)C(Cc1ccccc1)NC(=O)CNC(=O)CNC(=O)OCc1ccccc1 (stereo not given) | -6% | -13%
CCN(CC(=O)NCc1cccs1)C(=O)CCCOc1ccc(C(C)(C)C)cc1 | -18% | -7%
CCCCN(C)S(=O)(=O)c1cc2c(cc1Br)CCN2C(=O)C1CC1 | -11% | u

# Next compounds.
# Below each compound: Vaccinia Venus, Vaccinia mCherry
> Cc1ccc(NS(=O)(=O)c2cc3[nH]c(=O)c(=O)[nH]c3cc2C)c(C)c1
 : -6%, -9%
> Cc1ccc(-c2cc(C(=O)N/N=C/c3ccco3)[nH]n2)cc1
 : u, x
> Cc1ccc(-c2nc3ncccc3o2)cc1NC(=O)c1ccc2c(c1)OCO2
 : -20%, i
> Cn1c(C(=O)N2CCCC(C(=O)NCCN3CCOCC3)C2)cc2sccc21 (stereo not given)
 : 4%, -4%
> COc1cc(-c2nc(C(F)(F)F)c(OC)o2)cc(OC)c1OC
 : -12%, -16%
> COc1ccc(-n2nc(C(=O)NCC(=O)N3CC(C)CC(C)C3)c3ccccc3c2=O)c(OC)c1 (stereo not given)
 : -4%, -16%
> CCOC(=O)c1c(CC(C)C)csc1/N=C/C1C(=O)CCCC1=O
 : 79%[activator], -2%
> Cc1ccc(-c2nc3cccnc3s2)cc1NS(=O)(=O)c1ccc2c(c1)CCCC2
 : -6%, u
> CC(=O)Nc1ccc(N=Nc2ccccc2)cc1[N+](=O)[O-]
 : -9%, -19%
> Cc1c(-c2ccccc2)c(=O)oc2ccc(OC(=O)N3CCOCC3)cc12
 : -18%, i
> CN(C)CCC(=O)c1ccc(Cl)cc1
 : -6%, -14%
> O=C(COC(=O)c1ccc(S(=O)(=O)N2CCCCC2)cc1)NCc1ccco1
 : -1%, -6%
> CC(C)N(CCn1c(=S)[nH]c2ccccc2c1=O)C(C)C
 : -8%, -12%
> Cc1nn(CC(=O)Nc2ccc3c(c2)OCCO3)c(C)c1[N+](=O)[O-]
 : -5%, -15%
> Cc1ccccc1-c1nnc(SCC(=O)N2CCCC2)o1
 : 4%, 20%
> Cc1ccc2c(c1)/C(=N/N1C(=O)c3ccccc3C1=O)C(=O)N2
 : -10%, -19%
> Cc1csc(Nc2cccc3ccccc23)n1
 : -2%, -16%
> Cn1c(=O)c2cc(NC(=O)Cc3cccnc3)ccc2n1-c1ccc2ccccc2c1
 : -23%, -28%
> O=C1C2C(c3ccccc3)C=CC(c3ccccc3)C2C(=O)N1CCCO (stereo not given)
 : u, x
> C=C(C)c1cccc(C(C)(C)NC(=O)N2CCN(c3ncccn3)CC2)c1
 : -2%, x
> COCCCN1C(=O)C(CC(=O)NCCc2ccccn2)CC(C(=O)N2CCCCCC2)=C1C (stereo not given)
 : -5%, -3%
> O=C(O)Cc1ccc(NC(=O)COc2ccc3ccccc3c2)cc1
 : -10%, -1%
> CCN1CCN(C(=O)Cn2ncc3c2-c2ccccc2OC3)CC1
 : -5%, 15%
> CCN1C(=O)C(=O)N(Cc2ccc(OC)c(F)c2)C1=O
 : 2%, -19%
> Cc1cc(C)n2nc(SCC(=O)N(CCC#N)c3ccccc3F)nc2n1
 : -7%, i
> Cc1cc(C(C)(C)C)oc1C(=O)NCCCNC(=O)c1oc(C(C)(C)C)cc1C
 : -2%, -15%
> CC(C)(C)c1ccc(SCCc2ccccn2)cc1
 : -9%, i
> O=[N+]([O-])c1ccc(-c2nc(-c3cccs3)c(-c3cccs3)[nH]2)cc1
 : u, 11µM*
> Cc1ccc(N2C(=O)CC(NCc3ccc4c(c3)OCO4)C2=O)cc1Cl (stereo not given)
 : -23%, x
> Cc1cccc(OCC(=O)Nc2ccc(CN3CCOCC3)cc2)c1C
 : -18%, -3%
> COc1ccc([C@H]2CC(=O)C=C(c3cccc(C(F)(F)F)c3)C2)cc1
 : -14%, i
> O=C(c1cccc(Cl)c1)N1CCC2CC1c1cc(-c3ccccc3)ccc12 (stereo not given)
 : -2%, -4%
> COC(=O)[C@]12CCCCC=C1N(CCC1=CCCCC1)C(=O)[C@H](CC(=O)NCCCCc1ccccc1)C2
 : -5%, -5%
> CCOC(=O)c1cccc(S(=O)(=O)N(CCO)Cc2cc3cc(OC)ccc3[nH]c2=O)c1
 : -14%, i
> COc1cc(Cn2c3ccc(NC(=O)CCc4ccccc4)cc3c(=O)n2C)ccc1F
 : -30%, u
> Cc1cc(C)c(S(=O)(=O)NCC2CCC(C(=O)NCCc3ccccc3)CC2)c(C)c1 (stereo not given)
 : -23%, -27%
> COC(=O)[C@H](CC(C)C)NC(=O)Cn1cnc2c(OCc3ccccc3)ncnc21
 : -2%, i
> CCOC(=O)C1=C(N)N(c2ccccc2)C2=C(C(=O)CCC2)C1c1cccnc1 (stereo not given)
 : -2%, -3%
> Cc1ccc(C)c(CSc2nnc(C)c(=O)n2N)c1
 : -14%, -6%

# High-throughput results deposited in PubChem BioAssay by National Center for Advancing Translational Sciences (NCATS).

# Not a hit list, and some 0.82% of all compounds hit somewhere here.
